High-throughput results deposited in PubChem BioAssay by National Center for Advancing Translational Sciences (NCATS).
Sfp PPTase inh = Sfp phosphopantetheinyl transferase inhibition; Biochemical Sfp PPTase activity, qHTS; Q9F4F7; 310,000 compounds, 3.5% hits; Potency, µM, for the others: max response, negative = inhibition, hits mostly inhibitors; active = well fitted inhibition curve with a large enough effect; inconclusive = small, poorly fitted or top-dose-only effect, or another doubt; inactive = no such curve, though single readings can be large or run the other way;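 also: the enzyme is Sfp with the accession as filed and its product quenches rhodamine fluorescence; potency is read from the fitted curve at half-maximal effect; 0% = enzyme reaction without inhibitor and -100% = no enzyme wells; top concentration of the series not given in the record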
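After 15 min at room temperature with compound, 15 nM Sfp received 5 uM rhodamine-CoA plus 12.5 uM BHQ-2-ybbR (50 mM Hepes pH 7.6, 10 mM MgCl2). Rate came from the fluorescence difference over 30 min, ex 525/em 598 nm.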
CtBP-E1A blk = CtBP/E1A binding inhibition. 340,000 compounds, 0.49% hits. AID 651724. AlphaScreen GST-E1A/His-CtBP binding, 1536-well; hits give low values; control for the full effect not named in the record. activity change, % (test concentration not listed); in the data active means activity change below about -65%; inconclusive means about -30% to -65%; inactive means above about -30%; also: % is scaled to controls: 0 for no effect and ±100 for the full control effect
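Protein mix (5X: 125 nM each GST-E1A, His-CtBP) was incubated with pinned compound 2 h at 37 deg C in dark, in 50 mM Tris pH 8.0 buffer with 300 mM NaCl. Glutathione donor and nickel acceptor beads followed; AlphaScreen signal read after 1 h.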
ClpP mod = qHTS Assay for Activators of ClpP | purified B. subtilis ClpP, FRET peptide cleavage, 20 min | Potency, µM (highest dose often 57.5 µM), for inactives: top-dose activity change, negative = active | 340,000 compounds, 1.9% hits | AID 651965, 2013; active = well fitted falling curve with a large enough effect; inconclusive = small, poorly fitted or top-dose-only effect; inactive = no such curve, though single readings can be large or run the other way; also: potency is read from the fitted curve at half-maximal effect; the source files actives as falling curves though it sought activators and does not explain the sign; nearly all actives have a fitted effect of over 65% in size; many hits overshoot -100%
Target sequence (P80244 whole entry, looked up): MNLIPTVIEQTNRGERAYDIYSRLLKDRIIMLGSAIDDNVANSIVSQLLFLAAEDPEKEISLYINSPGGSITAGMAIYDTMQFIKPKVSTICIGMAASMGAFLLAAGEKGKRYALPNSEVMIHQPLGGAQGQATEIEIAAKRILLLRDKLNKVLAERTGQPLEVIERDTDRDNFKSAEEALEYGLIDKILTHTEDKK
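Purified B. subtilis ClpP, 10 microg/mL final in Tris/HCl pH8 with KCl, BSA, glycerol and Tween-20, cleaved an Abz/nitrotyrosine-quenched decapeptide. Fluorescence (ex 320, em 430) was read at 0 and 20 min at room temperature. Delta was normalized to 5.8 microM ADEP and DMSO/no-enzyme controls.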
gsp antag = antagonizes gsp, the McCune-Albright syndrome mutation | gsp-mutant cells, cAMP HTRF, 30 min; control for the full effect not named in the record | AID 624288 | Potency, µM (titrated, usually from 76.9 µM), without a hit: at the highest dose activity change, negative = inhibition, usual class: inhibitors | 340,000 compounds, 0.4% hits; active = falling curve of any shape with a large fitted effect; inconclusive = falling curve, mostly with a smaller effect; inactive = flat or rising curve; cell line not stated here;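 also: intracellular cAMP measured with PDE inhibitor Ro 20-1724 present during compound exposure; potency is read from the fitted curve at half-maximal effect; % is scaled to controls: 0 for no effect and ±100 for the full control effect; nearly all actives have a fitted effect of over 65% in size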
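Cells, 2000/well, grown 16–24 h in DMEM 10% FBS with 0.5 mg/ml G418, then compounds plus […] (300 uM addition stock), 30 min at 37C. cAMP read by HTRF (cAMP-d2 and anti-cAMP antibody-K in lysis buffer) after 30 min RT.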
gsp ag = agonists of gsp mutant (McCune-Albright syndrome); gsp mutant cells, cAMP HTRF, 30 min; control for the full effect not named in the record; Potency, µM (highest dose often 76.9 µM), without a hit: top-dose activation (cAMP increase), usual class: activators; 340,000 compounds, 0.13% hits; AID 624287; active = well fitted activation curve with a large enough effect; inconclusive = small, poorly fitted or top-dose-only effect, or another doubt; inactive = no such curve, though single readings can be large or run the other way; cell line not stated here;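 also: phosphodiesterase inhibitor Ro 20-1724 added with compounds to block cAMP breakdown; potency is read from the fitted curve at half-maximal effect; nearly all actives have a fitted effect of over 60% in size; about a fifth of the inactives were tested at one dose only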
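Cells stably selected in G418 were plated at 2000/well, grown 16-24 hr, then given compounds in DMSO with the PDE inhibitor […] (300 uM solution added) for 30 min at 37C; cAMP was read by HTRF.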
Menin MLL FP FL = menin-MLL binding inhibition, fluorescein peptide | Fluorescence polarization, fluorescein-MLL peptide displacement from menin | 290,000 tested, under 10 active | FP activity change, % at 61.4 µM; inconclusive = falling polarisation curve, or a change in total fluorescence; inactive = total fluorescence flat and polarisation flat or rising; no compound was filed as active; the % refers to the polarisation; negative = inhibition;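 also: % of control where 0% means no effect; inhibitors lower the polarisation; unlabelled MLL peptide was the positive control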
TRPV1 potentiator = potentiators of human vanilloid receptor 1 (TRPV1) | Q8NER1 | TRPV1-expressing cells, Fluo-8 calcium influx, capsaicin EC20 potentiation; host cell line not named in the record; control for the full effect not named in the record | 320,000 compounds, 0.02% hits | potentiation, % at 8.33 µM; active means potentiation above 80%; inconclusive means 30% to 80%; inactive means below 30%; also: 0% is about no effect
Target sequence (Q8NER1 whole entry, looked up): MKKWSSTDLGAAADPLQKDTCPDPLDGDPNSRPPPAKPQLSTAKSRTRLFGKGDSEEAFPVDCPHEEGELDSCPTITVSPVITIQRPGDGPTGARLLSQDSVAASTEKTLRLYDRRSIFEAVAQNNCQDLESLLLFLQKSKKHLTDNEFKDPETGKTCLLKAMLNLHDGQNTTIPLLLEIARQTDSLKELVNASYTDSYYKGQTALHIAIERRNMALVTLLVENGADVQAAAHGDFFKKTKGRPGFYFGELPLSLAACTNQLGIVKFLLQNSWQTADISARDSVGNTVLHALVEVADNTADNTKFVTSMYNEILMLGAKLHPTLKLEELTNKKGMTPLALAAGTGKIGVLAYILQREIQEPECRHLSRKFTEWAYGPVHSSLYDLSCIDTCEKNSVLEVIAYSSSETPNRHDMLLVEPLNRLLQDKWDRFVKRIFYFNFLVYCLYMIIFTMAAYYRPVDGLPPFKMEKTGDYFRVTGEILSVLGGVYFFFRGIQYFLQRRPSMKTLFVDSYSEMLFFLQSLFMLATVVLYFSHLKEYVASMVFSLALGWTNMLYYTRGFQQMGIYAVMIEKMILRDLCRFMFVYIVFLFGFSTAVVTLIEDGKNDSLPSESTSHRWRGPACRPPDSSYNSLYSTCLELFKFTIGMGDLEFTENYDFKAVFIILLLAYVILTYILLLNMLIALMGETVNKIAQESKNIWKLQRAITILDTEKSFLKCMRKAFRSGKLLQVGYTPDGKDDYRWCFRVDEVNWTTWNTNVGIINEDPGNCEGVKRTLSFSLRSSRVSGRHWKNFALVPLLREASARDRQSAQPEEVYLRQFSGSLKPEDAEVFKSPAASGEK
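Cells expressing TRPV1 were dye-loaded with Fluo-8 and read kinetically: 10 s baseline, 3 min after compound (agonist portion), then 2 min after EC20 capsaicin (allosteric enhancer portion). Calcium-bound dye fluorescence at 480/520 nm.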
* marks the source's active call; other numbers are inactive results; i = inactive; ? = inconclusive; . = not tested or not shown; & = joins results of further samples; [ ] = dose if it differs, or a comment.

Structure | ClpP mod | gsp ag | Menin MLL FP FL | TRPV1 potentiator | CtBP-E1A blk | Sfp PPTase inh | gsp antag
CCOc1ccc(/C(O)=C2\C(=O)C(=O)N(c3ccc(OC)cc3)C2c2ccccc2[N+](=O)[O-])cc1 (centres undefined) | . | 3.4%[15.4 µM] | -0.7 | 4.3 | 0.4 | -1.9% | ?
COc1ccc(CSc2n[nH]c(C)n2)cc1Br | -4.1% | -12.7% | 0.3 | -7.1 | -24.1 | 5.5% | -6.2%
O=C(/C=C/c1ccoc1)c1ccccc1O | 2.0% | -4.1%[15.4 µM] | 10.0 | -6.2 | 10.5 | -28.3% | 9.4%
CC1C(=O)N(Cc2cn(CCC3OCCCO3)nn2)CCS(=O)(=O)N1Cc1ccc(-c2ccc(Cl)c(Cl)c2)cc1 (centres undefined) | 0.2% | 5.7% | . | . | -24.6 | . | .
Cc1ccc(N2C(=O)N(CC(=O)Nc3c(C)cc(C)cc3Cl)C(=O)C2C)cc1 (centres undefined) | . | -2.4%[15.4 µM] | . | -6.8 | -3.9 | . | 4.1%
Cc1cc2c(c(=O)o1)C1O[C@](c3ccsc3)(Cc3ccccc31)O2 | . | . | 4.0[11.7 µM] | i | . | 1.1% | .
Cc1sc2ncnc(N3CCCCC3C)c2c1C (centres undefined) | 1.2% | -1.2% | 3.5 | -36.3 | 4.6 | 7.2% | ?
CC(C)c1ccc(NC(=O)c2ccc3c(c2)C(=O)N(Cc2cccnc2)C3=O)cc1 | 3.6% | ? | 0.0 | -27.8 | -4.0 | 6.3% | 35.5µM*
Cn1c(N)c(S(=O)(=O)N2CCCC2)c(=O)n(C)c1=O | -0.6% | 30.9% | -1.6 | 1.6 | 3.1 | 2.4% | 3.9%
O=C(NNc1nc(-c2ccccc2)cs1)c1ccc(F)cc1 | -11.9% | 2.4%[15.4 µM] | 0.3 | 1.6 | 10.7 | ? | 8.6%
Cn1c(SCc2ccc(C(C)(C)C)cc2)nnc1C1COc2ccccc2O1 (centres undefined) | . | 29.1% | 0.2 | -41.6 | -9.2 | -5.3% | -26.1%
COc1ccc(/C=C2\CCCC(C(=O)C(F)(F)F)=C2O)cc1 | -1.0% | 15.3% | -1.0 | -2.0 | -0.9 | -11.5% | 0.9%
COC(=O)CCCC1=CC2=CC(=O)C(C)(OC(=O)c3cccs3)C(=O)C2=CN1CCc1ccccn1 (centres undefined) | 0.7% | . | -18.1[11.7 µM] | ? | -6.9 | -0.2%&-5.0% | 0.1%
COc1ccc(C(=O)C2CCN(C(=S)Nc3ccc(F)cc3)CC2)cc1 | -0.8% | 4.3% | 0.7 | 0.4 | 5.9 | -3.5% | -10.5%
COc1ccccc1NC(=O)C(C)OC(=O)C1CC(=O)N(c2ccc3c(c2)OCCO3)C1 (centres undefined) | . | 0.2%[15.4 µM] | . | -5.7 | 2.7 | 19.4% | 2.8%
COCCNC(=O)CCC(=O)NNc1nc2ccccc2c2nc(C)nn12 | -0.9%&-3.6% | 8.0% | -4.2 | 25.7 | -5.1 | 3.4% | 8.2%
O=S(=O)(NCc1csc(-c2cccnc2)n1)c1cccs1 | -6.2% | 16.3% | -0.3 | 3.1 | 2.0 | 5.8% | 4.0%
CCOC(=O)c1ccc(N2C(=O)CC(SCC(N)C(=O)OCC)C2=O)cc1 (centres undefined) | -4.3% | -36.2% | 4.8 | 6.1 | -1.3 | ? | -5.8%
Cc1cc(C)nc(NS(=O)(=O)c2ccc(NC(=O)CCC3COc4ccccc4O3)cc2)n1 (centres undefined) | -1.6% | 19.3% | 7.8 | 19.8 | ? | 18.6% | 3.9%[15.4 µM]
CC(=O)c1ccc(NC(=O)C2CC(=O)N(Cc3ccccc3)C2)cc1 (centres undefined) | 0.2% | -98.7%[inhibitor] | 5.2 | 19.6 | -7.9 | 23.6% | -0.5%
Cc1nc(N)sc1-c1csc(N(C)c2ccc(O)cc2)n1 | -0.1% | 17.2% | 5.5 | -2.5 | -27.6 | 5.7% | -17.6%
CCn1nnc2cc(C(=O)Nc3cc(OC)cc(OC)c3)ccc21 | 0.6% | -1.2% | . | -5.0 | 2.6 | . | 6.8%
CCN(CC)C(=O)C1=C(C)N(Cc2ccccc2)C(=O)C(CC(=O)NCC2CCCCC2)C1 (centres undefined) | -1.0% | -45.8% | . | . | -13.1 | . | .
CCOCCOC(=O)COc1ccc(N2C(=O)c3ccccc3C2=O)cc1 | . | . | 1.6 | -3.9 | . | 15.7% | .
CSc1ncccc1C(=O)NC1CC(C)(C)Cc2c1cnn2-c1ccccc1C (centres undefined) | 1.2% | 9.9%[15.4 µM] | . | -10.3 | -1.8 | 15.4% | -5.8%

Looked up by compound from the entries so far (2):
Structure | ClpP mod | gsp ag | Menin MLL FP FL | TRPV1 potentiator | CtBP-E1A blk | Sfp PPTase inh | gsp antag
CC(C)c1ccc(NC(=O)c2ccc3c(c2)C(=O)N(Cc2cccnc2)C3=O)cc1 | 3.6% | ? | 0.0 | -27.8 | -4.0 | 6.3% | 35.5µM*
Cn1c(N)c(S(=O)(=O)N2CCCC2)c(=O)n(C)c1=O | -0.6% | 30.9% | -1.6 | 1.6 | 3.1 | 2.4% | 3.9%

Following part.
Structure | ClpP mod | gsp ag | Menin MLL FP FL | TRPV1 potentiator | CtBP-E1A blk | Sfp PPTase inh | gsp antag
COc1ccc(N(CC(=O)N2CCc3ccccc3C2)S(C)(=O)=O)cc1Cl | 0.5% | -8.1% | -2.5 | 17.6 | . | -4.8% | 1.2%
O=C(NCc1ccco1)C1CC(c2ccc(Cl)c(Cl)c2)=NO1 (centres undefined) | -0.1% | -6.4% | 0.3 | 5.4 | 5.9 | 14.8% | 19.4%
CN(CC(=O)Nc1ccc(F)c(F)c1F)C(=O)c1ccc(N2CCCC2=O)cc1 | . | 6.8% | . | . | -0.1 | . | -11.8%
Cc1cc(C)c2c(N)c(S(=O)(=O)c3ccccc3)sc2n1 | 28.3% | -14.5% | 11.6 | -25.7 | -0.9 | 89.1µM* | -17.2%
CCC(=O)Nc1cccc(NC(=O)c2cccc([N+](=O)[O-])c2)c1 | -1.1% | 2.3% | 1.9 | 17.8 | 1.2 | 10.8% | -11.4%
COc1ccc(CCNC(=O)[C@@H]2C[C@H]2c2ccccc2)cc1OC | -5.2% | -3.0%[15.4 µM] | 2.5 | 4.9 | 4.5 | 13.8% | 3.8%
O=S(=O)(Cc1ccco1)Cc1nc(-c2ccc(Cl)cc2)cs1 | . | 12.7%[15.4 µM] | 9.7 | -8.6 | 0.6 | 25.1µM* | -0.1%
COc1ccc(C2C(C#N)=C(N)OC3=C2C(=O)CCC3)cc1OC (centres undefined) | . | 3.2% | -8.3 | 2.1 | 13.6 | 13.0% | -1.2%
Cc1cc(=O)c2cc(C(=O)c3ccccc3)ccc2[nH]1 | -2.7% | -56.0%[inhibitor] | -2.1 | 16.6 | . | 16.3% | -2.0%
c1ccc(C2(CNc3ccccn3)CCCC2)cc1 | ? | -50.5%[inhibitor] | 2.1 | -16.6 | 5.4 | 0.2% | -8.5%
Cc1nc(NC(=O)C2CC2)sc1C(=O)Nc1ccccc1Cl | -3.2% | ? | 1.2 | -13.2 | . | 9.2% | -4.4%
CC1CCCC(C)N1CC(C)(C)NS(=O)(=O)c1ccc(Cl)cc1 (centres undefined) | -0.1% | -11.3% | 0.1 | -0.4 | 4.5 | -2.8% | 7.4%
Cc1cc([N+](=O)[O-])ccc1N=Nc1c(N)[nH]n(-c2ccccc2)c1=O | . | 4.1%[15.4 µM] | 2.7 | 0.5 | -2.1 | 13.7% | -2.0%
NC(=O)C1CCN(C(=O)CN(C2CCCCC2)S(=O)(=O)c2ccc(F)cc2)CC1 | . | -5.0%[15.4 µM] | 1.7 | 19.9 | 5.9 | 14.3% | -5.0%
COc1cc([N+](=O)[O-])ccc1NC(=S)Nc1cccc(C(=O)O)c1 | -26.1% | -4.5%[15.4 µM] | . | -5.8 | 6.2 | ? | 11.6%
COc1ccc(-c2cc(C(=O)N3CCCC3)no2)cc1 | . | -3.8%[15.4 µM] | 4.0 | -30.3 | -15.9 | 16.3% | -33.0%
CNC(=O)C1=C(C)NC(=S)NC1c1cccs1 (centres undefined) | . | ? | -0.9 | -0.4 | 5.1 | 7.0% | 10.5%
Cc1csc2c(C#N)c(=O)c3c(n12)CCC3 | ? | 13.7% | 3.2 | 3.7 | 8.4 | 4.3% | 0.1%
COC(=O)c1cc2c(C(F)(F)F)nn(C)c2s1 | -2.6% | -8.3%[15.4 µM] | 0.4 | -6.5 | 0.0 | 8.5% | 13.3%
CC(CNC(=O)CCC(=O)N1CCOc2ccccc21)c1ccccc1 (centres undefined) | -3.9% | -27.9% | 2.0 | -8.7 | 0.2 | 14.0% | 6.2%
N=c1n(CCN2CCOCC2)c2ccccc2n1CC(=O)c1ccc(Cl)c(Cl)c1 | -11.3% | -1.8% | ? | 13.9 | -0.2 | -6.2% | 2.7%
COc1ccc(C(C(=O)NC2CCCCC2)N(C(=O)c2ccco2)c2ccccc2C(C)=O)cc1 (centres undefined) | . | -8.5%[15.4 µM] | . | -4.3 | 5.5 | 0.1% | 1.9%
CCc1cccc(CC)c1N(COC)C(=O)Cn1cnc2ccccc21 | . | 0.1% | 3.8 | -1.6 | 5.2 | 7.5% | -2.8%
NC(=O)CN(C/C=C/c1ccccc1)C/C=C/c1ccccc1 | -1.6% | 22.5% | 1.3 | 28.6 | . | -29.9% | -5.6%
Cc1ccc(S(=O)(=O)N2[C@@H](c3ccc4c(c3)OCO4)C(C(=O)O)=C[C@H]2C(C)(C)C)cc1 | 0.3% | . | . | . | 3.2 | . | -12.3%
COc1ccc(-c2nnc(SC(C)C(=O)Nc3ccc4c(c3)OCCO4)o2)cc1 (centres undefined) | -1.9% | -26.2% | 0.0 | 6.9 | -9.1 | -0.2% | -3.2%
Cc1cc(C)cc(NC(=O)CSc2nnc(-c3ccccc3C)o2)c1 | 2.5% | 14.8% | 2.2 | 6.0 | 6.1 | 15.7% | -12.6%
COC(=O)[C@H](CCSC)NC(=O)Nc1ccc(C)cc1C | 0.4% | -19.3% | 2.6 | -1.5 | 4.3 | 16.0% | -0.9%
